Bioassay records (PubChem)
PABP FP inh: PABP-poly(A) binding inhibition | PABP-poly(A) RNA binding, fluorescence polarization | inhibition, % at 35 µM | 290,000 tested, 1% active | AID 2014;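 active = 50% or more with normal probe brightness, or confirmed in later tests; inconclusive = above 50% with abnormal brightness, or retests that disagree; inactive = below 50% or failed in later tests; about a fifth of its hits are not listed in these tables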;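 note: calls also rest on retests at 20 µM and on dose response follow-up; controls were probe without protein and protein plus probe with vehicle; some compounds called inactive have numbers as strong as hits; many hits fall short of the cut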
Target sequence (P11940 whole entry, looked up): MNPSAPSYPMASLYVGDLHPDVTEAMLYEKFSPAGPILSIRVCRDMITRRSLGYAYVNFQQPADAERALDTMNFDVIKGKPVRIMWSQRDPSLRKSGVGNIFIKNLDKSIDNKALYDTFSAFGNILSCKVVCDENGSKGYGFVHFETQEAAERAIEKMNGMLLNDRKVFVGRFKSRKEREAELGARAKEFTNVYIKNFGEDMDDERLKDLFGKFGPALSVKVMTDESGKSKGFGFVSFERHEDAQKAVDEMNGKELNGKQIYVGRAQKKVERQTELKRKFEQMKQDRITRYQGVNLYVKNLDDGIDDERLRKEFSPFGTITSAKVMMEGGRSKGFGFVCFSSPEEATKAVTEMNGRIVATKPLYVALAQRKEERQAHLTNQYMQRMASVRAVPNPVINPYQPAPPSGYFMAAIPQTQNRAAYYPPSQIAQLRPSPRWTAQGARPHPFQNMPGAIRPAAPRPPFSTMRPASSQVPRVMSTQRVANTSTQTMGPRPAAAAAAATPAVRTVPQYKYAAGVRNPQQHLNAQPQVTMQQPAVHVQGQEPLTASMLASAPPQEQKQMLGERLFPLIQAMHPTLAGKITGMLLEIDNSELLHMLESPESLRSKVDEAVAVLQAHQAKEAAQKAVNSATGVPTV
UUG fidelity: yeast start codon fidelity modulation | AID 602363 | 350,000 tested, 0.13% active | activity score, % at 18.7 µM | S. cerevisiae UUG-firefly luciferase reporter, luminescence/redox ratio;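 active = replicate mean at a twofold rise or more, about +100% in these data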;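 note: firefly luciferase made from a UUG start codon reports start codon fidelity; reporter light over untreated wells divided by growth signal over untreated wells; some hits fall short of that in this replicate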
MT1-MMP act inh: blocks activation of human MT1-MMP. HT1080 RFP-PRO-GFP cells, GFP/RFP ratio fluorescence, overnight; percent of plate control window, DMSO zero. GFP/RFP ratio change, % at 20 µM. 360,000 tested, 0.061% active;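 active = GFP/RFP ratio change of at least 30% with cell ATP level not reduced by more than half and red fluorescence within 50% of control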; note: strong numbers were not always called active
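Read-out: GFP/RFP fluorescence ratio; Test system: RFP-PRO-GFP reporter HT1080 cells; Compound dosing: single-point 20 µM compound, 1% DMSO; Times: overnight compound exposure at 37 °C.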
CSC inhib: cancer stem cell inhibition; cancer stem cell-like cells viability, luminescence; inhibition, % at 7.5 µM; 300,000 tested, 1.1% active; AID 2717;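 active = mean at 75% or more and at least half the replicates too; inconclusive = mean and replicates disagree; tested in HMLE shEcad cells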;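 note: 0% = median of negative and 100% = median of positive control wells; the first replicate is given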
HIV Env fusion: inhibitors of HIV Env-mediated cell fusion | inhibition, % at 12.3 µM | HeLa-JRFL Env/CEM21 cell fusion, luciferase | AID 651610 | 360,000 tested, 1.1% active;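 active = mean replicate inhibition score of at least 50 and every replicate individually at or above 50; inconclusive = only one of the two criteria met; inactive = mean below 50 and not all replicates reaching 50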;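 note: 0% = plate neutral controls and 100% = maraviroc near 300 nM; one replicate is shown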
eIF4H FP inh: inhibitors of RNA binding by human eIF4H | 290,000 tested, 0.94% active | inhibition, % at 35 µM | AID 2012 | eIF4H fluorescence polarization binding assay | Q15056;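 active = 50% or more with normal probe brightness, or confirmed in later tests; inconclusive = above 50% with abnormal brightness, or retests that disagree; inactive = below 50% or failed in later tests; about a fifth of its hits are not listed in these tables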;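 note: calls also rest on retests at 20 µM and on dose response follow-up; 0% = protein and probe with vehicle and 100% = probe without protein; strong numbers were not always called active; many hits fall short of the cut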
Rce1 inh: inhibitors of yeast Ras-converting enzyme | 290,000 tested, 0.27% active | yeast membranes, quenched prenylated peptide cleavage fluorescence | calls only | AID 2563;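 active = fall in fluorescence gain of 50% or more versus controls, with final raw signal at or below 3038400; inconclusive = same 50% fall but final raw signal above 3038400; inactive = fall in fluorescence gain under 50%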;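 note: plate controls were neutral control wells for no effect and wells lacking membranes for full effect; tested at 10 µM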
eIF4H FP inh retest: also measured in eIF4H FP inh; calls as there; inhibition, %; compound at 20 µM; confirmation average;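 mean of two retest wells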
PABP FP inh retest: also measured in PABP FP inh; calls as there; inhibition, %; compound at 20 µM; confirmation repeats;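 mean of two retest wells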
MT1-MMP act inh RFP: further read-out of MT1-MMP act inh, marked with its call; RFP signal change, %; measured here: RFP expression control read;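 0 = vehicle wells; hits needed this value within 50% of zero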
An asterisk follows results filed as active; i = inactive; u = inconclusive; x = not tested or not shown. Hits appear at their usual frequency; any-hit rate near 2.9%.

SMILES	PABP FP inh	UUG fidelity	MT1-MMP act inh	MT1-MMP act inh RFP	CSC inhib	HIV Env fusion	eIF4H FP inh	Rce1 inh	others
CC(C)CCNC(=O)CN1N=C(c2ccc(Cl)cc2)CCC1=O	5	-11	-1	2	-7	-17	-2	i
CCOC(=O)C1(CC)CC(CSc2nc3ccccc3[nH]2)OC1=O (stereo not given)	11	-22	1	1	-15	x	-4	i
O=C(Nc1ccc([N+](=O)[O-])c(NC(=O)C2CCCO2)c1)C1CCCO1 (stereo not given)	7	x	1	5	-17	x	23	i
O=C(Nc1ccc(F)cc1)N1CCCN(c2ccc(C(F)(F)F)cn2)CC1	6	-1	3	-20	11	22	-3	i
Cc1cc(Nc2cc(F)ccc2C)n2ncnc2n1	-13	-20	5	1	-4	-7	1	i
O=c1c2ccccc2nc(-c2ccc(Cl)c(Cl)c2)n1O	5	-11	-3	-5	0	x	4	i
O=C(/C=C/c1ccc2c(c1)OCO2)Nc1nc(-c2ccccc2)cs1	-2	-10	-16	-20	99*	x	-10	i
CC1=NNC(=O)C1Oc1ccccc1 (stereo not given)	29	x	-3	4	-16	-3	22	i
CCOc1cccc(-c2c(C(=O)N/N=C(\C)c3ccccn3)nnn2-c2nonc2N)c1	3	-28	24	-5	-12	39	4	i
CCn1c(Cc2c(C)[nH]c3ccccc23)n[nH]c1=S	5	-23	-5	-6	-15	-10	-2	i
O=S(=O)(c1ccc(F)cc1)c1nc(-c2ccccc2F)oc1N1CCCCC1	-8	x	-7	-3	-4	-40	-7	i
COc1ccccc1N1C(=O)N(CC(=O)C(C)(C)C)c2ccccc2S1(=O)=O	8	-3	1	0	25	-7	10	i
CC(=NC1CCCCC1)c1ccc(O)cc1O	x	-8	-3	0	x	-13	x	x
CCC(C)c1ccc(OCC(=O)NNC(=O)C2CCCCC2)cc1 (stereo not given)	11	-14	4	8	-4	1	3	i
Cc1c(NC(=O)CSc2n[nH]c(-c3ccccc3)n2)c(=O)n(-c2ccccc2)n1C	-4	-15	0	0	0	0	4	i
N#CCCN(Cc1cccnc1)C(=S)NC(=O)c1ccco1	67*	x	-1	4	-1	19	7	x	eIF4H FP inh retest=39;PABP FP inh retest=55*
CC(C)CN(CCCNC(=O)CN1C(=O)COc2ccc(S(=O)(=O)N3CCOCC3)cc21)CC(C)C	1	x	-4	-1	-12	-3	-16	i
COc1ccc(C2C(C(N)=O)=C(C)Nc3nc(CCCO)nn32)cc1 (stereo not given)	-12	-4	-3	3	3	-2	0	i
COCC(C)n1c(SCC(=O)NC(=O)Nc2ccc3c(c2)OCCO3)nc2ccccc2c1=O (stereo not given)	-4	8	-1	-3	-12	-1	-4	x
Cc1cc(C)cc(NC(=O)c2cc(Cl)sc2Cl)c1	-9	x	2	0	15	x	-3	i
N=c1ccn(Cc2c(Cl)cccc2Cl)cc1	-10	x	3	-22	9	9	-6	i
CCOC(=O)c1c(NC(=O)CNCCOC)sc2c1CCCC2	-5	9	-5	-3	9	x	12	i
Cc1occc1C(=O)Nc1ccc(S(=O)(=O)N2CCCC2)cc1	28	5	-2	-5	-12	-55	8	i
COc1ccc(C(=O)N2CCC(C(=O)NCc3ccccn3)CC2)cc1	0	-14	9	7	-4	x	0	i
O=C1N/C(=C\c2ccccc2)c2ccccc21	-2	-13	-1	-6	56	-69	-7	i
CC(C)(C)c1ccc2c(c1)N(CC(=O)N1CCCC1)C(=O)CO2	12	-25	2	2	-11	-1	3	i
CCOc1nc(Oc2cccc(C(=O)O)c2)nc(Oc2cccc(C(=O)O)c2)n1	12	-2	0	6	-4	x	-2	i
O=C(CCNC(=O)C1CCN(S(=O)(=O)c2ccc(F)cc2)CC1)NCc1cccc(Cl)c1	-13	2	-1	-7	-4	26	-7	i
COc1ccc(NS(=O)(=O)c2cccc(C(=O)NCc3ccccc3CN3CCOCC3)c2)cc1	x	3	-1	-7	x	6	x	x
O=C(CSc1ncc(C(F)(F)F)cc1Cl)N1CCN(S(=O)(=O)c2ccc(Cl)cc2)CC1	1	-8	-6	-8	5	x	5	i
CCOc1cc(Br)c(C=O)cc1OCC	-6	x	4	-5	0	-250	-2	i
Cc1nc(Cc2nnc(SCC(=O)N3CCN(c4ccc(F)cc4)CC3)o2)cs1	x	2	0	-1	-11	-4	x	x
S=c1[nH]nc(-c2cnccn2)n1-c1ccccc1	-4	-10	0	4	-4	x	-4	i
CC(=O)N1c2c(cc(Br)cc2S(=O)(=O)N2CCCCC2)CC1C (stereo not given)	14	-20	3	0	-7	19	-8	i
N#C/C(=C\c1ccccc1)c1nc2ncccc2[nH]1	7	-6	-7	0	-5	x	-7	i
CC(=O)c1cc(-c2ccc(F)cc2)n(CCC(=O)Nc2cc(C)[nH]n2)c1C	1	-12	-8	-1	-15	x	4	i
Cc1ccc(C2(C)NC(=O)N(CC(=O)N3CCN(S(=O)(=O)c4cccc([N+](=O)[O-])c4)CC3)C2=O)cc1 (stereo not given)	x	-2	-2	-2	-12	x	x	x
CN(CC(=O)NCCc1ccccc1)CC(=O)Nc1cccc(F)c1	x	-16	3	2	-2	4	x	x
CC(C)(C)c1ccc(S(=O)(=O)N2CCCCC2)cc1	-8	-8	-10	-2	-1	15	-6	i
O=C(CN1CCCCC1)Nc1ccc(S(=O)(=O)c2ccc(NC(=O)CN3CCCCC3)cc2)cc1	x	-25	9	1	x	-45	x	x
C/C(=N/NC(=O)CSCc1ccc(Cl)cc1)c1cccc(NC(=O)c2ccccc2)c1	6	-5	-1	2	-15	13	0	i
CCC(=O)N(Cc1cc2cc(OC)ccc2[nH]c1=O)c1cc(C)ccc1C	-6	-13	4	1	-4	-190	0	i
CCOc1cc(CNCCO)cc(Br)c1OCc1ccccc1Cl	-6	16	-5	-13	-18	x	-5	i
O=C(O)CCCN=C1NC2(CCCC2)Cc2ccccc21	-1	-12	5	4	5	x	5	i
O=C(NCCc1c[nH]c2ccccc12)c1cc(Cl)c2c(c1)OCO2	-1	-13	1	0	11	-36	5	i
Cc1csc(SCC(=O)N(C)CC(=O)Nc2ccccc2Cl)n1	x	x	3	2	-9	-29	x	i
COc1ccc(NC2CC(=O)N(c3cccc([N+](=O)[O-])c3)C2=O)cc1 (stereo not given)	-10	x	-4	-2	-8	-4	3	i
COc1ccc(CC(=O)OC(C)C(=O)Nc2c(C)n(C)n(-c3ccccc3)c2=O)cc1OC (stereo not given)	x	-12	-2	4	-11	-7	x	x
c1ccc2c(N3CCCCC3)nc(N3CCOCC3)nc2c1	-2	x	3	-2	-7	9	4	i
O=C1c2cccc3c([N+](=O)[O-])ccc(c23)C(=O)N1c1ccc(Cl)cn1	28	3	-464	-17	112*	-419	21	i
COc1ccc(OC)c(C(=O)c2ccc(Cl)cc2)c1	-7	x	-5	-4	7	-11	4	i
O=S1(=O)CCOCCCN1Cc1ccccc1F	16	-2	13	5	1	x	1	i
COc1ccc(CNC(=O)CNC(=O)N2CC(=O)Nc3ccccc32)cc1	6	-17	2	4	-5	12	-8	i
Cc1cccc(Cn2c(C)nc3ccc([N+](=O)[O-])cc3c2=O)c1	5	-24	2	-3	4	7	0	i
CCc1ccc(C2c3[nH]c4ccccc4c3CCN2C(=O)c2cc(C)nn2C)cc1 (stereo not given)	-13	x	-9	-11	48	5	-5	i
CNC(=S)NNc1nc(-c2ccccc2)c2cc(Cl)ccc2n1	x	-29	-4	-3	x	1	x	i
CC[C@H](C)[C@@H](CNC)NC[C@@H](Cc1ccc(O)cc1)NCC(C)(C)C	5	-13	4	0	-3	-41	0	i
CC(=O)Nc1ccc(NC(=O)c2ccc(-n3c(C)ccc3C)cc2)cc1	-14	-33	-4	1	15	x	2	i
COc1ccc(C(=O)NCCNc2ccc([N+](=O)[O-])cc2)cc1	14	x	2	2	-2	17	-9	i
CC(C(=O)Nc1ccc(S(=O)(=O)N2CCOCC2)cc1)N1CCN(c2ccccn2)CC1 (stereo not given)	u	x	0	5	x	9	-2	i

Compounds above with a furan ring, fused or not:
SMILES	PABP FP inh	UUG fidelity	MT1-MMP act inh	MT1-MMP act inh RFP	CSC inhib	HIV Env fusion	eIF4H FP inh	Rce1 inh	others
N#CCCN(Cc1cccnc1)C(=S)NC(=O)c1ccco1	67*	x	-1	4	-1	19	7	x	eIF4H FP inh retest=39;PABP FP inh retest=55*
Cc1occc1C(=O)Nc1ccc(S(=O)(=O)N2CCCC2)cc1	28	5	-2	-5	-12	-55	8	i

Remaining list, next part.
SMILES	PABP FP inh	UUG fidelity	MT1-MMP act inh	MT1-MMP act inh RFP	CSC inhib	HIV Env fusion	eIF4H FP inh	Rce1 inh	others
Cc1ccc(NC(=O)CCl)c(C)c1	8	x	-1	-6	x	-20	-14	i
O=C(Nc1ccccn1)c1ccc(S(=O)(=O)c2ccc(Cl)cc2)cc1	17	x	-1	-17	11	5	-1	i
CCN(CC)C(=O)C1CCCN(c2ccc([N+](=O)[O-])cc2[N+](=O)[O-])C1 (stereo not given)	u	x	4	-1	-10	9	u	i
CCn1c2ccccc2c2cc(NC(=O)C/C(C)=N/NC(=O)c3ccccc3N)ccc21	-8	-8	2	-2	-3	20	-8	i
CCCn1nc(NC(=O)CC(C)C)c2cc3cccc(C)c3nc21	17	-11	1	-4	4	-69	5	i
COc1ccc(CN2CCNC(=O)C2CC(=O)N(C)Cc2ccccn2)cc1OC (stereo not given)	18	x	0	8	13	12	10	i
N#Cc1ccccc1OCCCNC1CCCC1	-7	x	1	3	0	8	6	i
CCOC1=C2[C@@H](CN(S(=O)(=O)c3ccc(C)cc3)[C@H]2c2ccccc2)[C@H]2C(=O)N(Cc3ccccc3)C(=O)[C@H]2C1	x	-24	-11	-9	x	-120	x	x
O=C(CN1C(=O)NC2(CCCCCC2)C1=O)Nc1ccc2c(c1)CCC2	9	-7	6	7	-5	8	-2	i

Structural class, those above with fluorine (9)
SMILES	PABP FP inh	UUG fidelity	MT1-MMP act inh	MT1-MMP act inh RFP	CSC inhib	HIV Env fusion	eIF4H FP inh	Rce1 inh	others
O=C(Nc1ccc(F)cc1)N1CCCN(c2ccc(C(F)(F)F)cn2)CC1	6	-1	3	-20	11	22	-3	i
Cc1cc(Nc2cc(F)ccc2C)n2ncnc2n1	-13	-20	5	1	-4	-7	1	i
O=S(=O)(c1ccc(F)cc1)c1nc(-c2ccccc2F)oc1N1CCCCC1	-8	x	-7	-3	-4	-40	-7	i
O=C(CCNC(=O)C1CCN(S(=O)(=O)c2ccc(F)cc2)CC1)NCc1cccc(Cl)c1	-13	2	-1	-7	-4	26	-7	i
O=C(CSc1ncc(C(F)(F)F)cc1Cl)N1CCN(S(=O)(=O)c2ccc(Cl)cc2)CC1	1	-8	-6	-8	5	x	5	i
Cc1nc(Cc2nnc(SCC(=O)N3CCN(c4ccc(F)cc4)CC3)o2)cs1	x	2	0	-1	-11	-4	x	x
CC(=O)c1cc(-c2ccc(F)cc2)n(CCC(=O)Nc2cc(C)[nH]n2)c1C	1	-12	-8	-1	-15	x	4	i
CN(CC(=O)NCCc1ccccc1)CC(=O)Nc1cccc(F)c1	x	-16	3	2	-2	4	x	x
O=S1(=O)CCOCCCN1Cc1ccccc1F	16	-2	13	5	1	x	1	i
